# AmpC inh no det: Promiscuous and Specific Inhibitors of AmpC Beta-Lactamase (assay without detergent). P00811. AmpC nitrocefin hydrolysis, absorbance 480 nm, no detergent; potencies from a single point are estimates. Potency, µM (titrated, usually from 28.7 µM), for inactives: at the highest dose activity change, negative = inhibition. actives 1.8% (n = 71,000); active = falling curve, for most hits resting on a single point; inconclusive = weak or doubtful change; inactive = flat or rising curve; note: % of control where 0% means no effect; about half of the hits show no inhibition at the top dose; a quarter of the inactives give rising signals
# Target sequence (P00811 whole entry, looked up): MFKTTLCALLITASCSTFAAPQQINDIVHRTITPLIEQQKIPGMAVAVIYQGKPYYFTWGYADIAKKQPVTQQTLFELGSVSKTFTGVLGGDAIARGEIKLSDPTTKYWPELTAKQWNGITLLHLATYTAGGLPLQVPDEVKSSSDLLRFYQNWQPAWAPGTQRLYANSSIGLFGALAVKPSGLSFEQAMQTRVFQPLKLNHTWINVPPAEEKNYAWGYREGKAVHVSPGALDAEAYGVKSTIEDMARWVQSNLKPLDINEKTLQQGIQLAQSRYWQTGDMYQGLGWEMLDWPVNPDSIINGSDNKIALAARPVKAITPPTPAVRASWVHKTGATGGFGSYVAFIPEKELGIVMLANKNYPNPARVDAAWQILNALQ
#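 AmpC, 20 mM phosphate pH 7.0; 15 min cpd preinc, RT; start with nitrocefin (800 uM stock); A480 kinetic read, 20 s intervals, 4 min. No-enzyme wells = negative control.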
# * hit, by the source's call; & = joins results of further samples; [ ] = another dose, or the depositor's remark. Potency is the fitted concentration of half-maximal effect. Only part of the results is shown; the hit share may differ from the screen's.
# Start of the listing, in advance, 19 compounds:
SMILES,AmpC inh no det
OC1CN=C2CCCc3c2n(c2ccc(Cl)cc32)C1 (stereo not drawn),13%
NCCOc1ccccc1-c1ccccc1,-4%
CCCC(c1nnnn1Cc1ccc(OC)cc1)N1CCC(C(N)=O)CC1 (stereo not drawn),30%
Cc1nc2ccc(NC(=O)Nc3ccnc4cccnc34)cc2o1,5%
CCn1c(SCC(=O)N2CCOCC2)nc2oc3c(Cl)cc(Cl)cc3c(=O)c2c1=O,41%
COc1ccc(-c2cn3c(C)c(C(=O)NC(C)C)sc3n2)cc1,25%
COC(=O)c1[nH]c2cc(OC)ccc2c1NC(=O)CCN1CCN(c2cccc(C)c2C)CC1,114%
O=C(c1sc2ccccc2c1Cl)N(Cc1cccs1)C1CCS(=O)(=O)C1 (stereo not drawn),16%
O=C(CN1C(=O)COc2ccccc21)N(Cc1ccccc1)Cc1ccccn1,21%
Brc1ccc(-c2nnc3sc(CN4CCC5(CC4)OCCO5)cn23)cc1,17%
Cc1ccc2cc(CCNC(=O)C3CCCC3)c(=O)[nH]c2c1,0%
Cc1ccc(NC(=O)C2CCCN(S(=O)(=O)c3c(C)noc3C)C2)c(C)c1 (stereo not drawn),38%
O=C1CCC(C(=O)NC2(C(=O)NC3CCCCC3)CCCCC2)N1 (stereo not drawn),1%
CCN(CC)S(=O)(=O)N1CCC(C(=O)NCc2ccc(C)cc2)CC1,38%
Cc1nc2nc(C)c(CCC(=O)NCc3ccc4c(c3)OCO4)c(C)n2n1,2%
O=C(COc1ncnc2ccccc12)N1CCOCC1,-10%
COc1ccccc1CNc1ncncc1-c1ccc2c(c1)OCO2,30%
CCCN(CCC)S(=O)(=O)c1ccc(C(=O)Nc2nnc(-c3cccc(OC)c3)o2)cc1,-20%
O=S(=O)(O)c1cc(O)c2c(N=Cc3ccccc3O)cc(S(=O)(=O)O)cc2c1,1%[5.75 µM]

# The listing, from the start:
SMILES,AmpC inh no det
OC1CN=C2CCCc3c2n(c2ccc(Cl)cc32)C1 (stereo not drawn),13%
NCCOc1ccccc1-c1ccccc1,-4%
CCCC(c1nnnn1Cc1ccc(OC)cc1)N1CCC(C(N)=O)CC1 (stereo not drawn),30%
Cc1nc2ccc(NC(=O)Nc3ccnc4cccnc34)cc2o1,5%
CCn1c(SCC(=O)N2CCOCC2)nc2oc3c(Cl)cc(Cl)cc3c(=O)c2c1=O,41%
COc1ccc(-c2cn3c(C)c(C(=O)NC(C)C)sc3n2)cc1,25%
COC(=O)c1[nH]c2cc(OC)ccc2c1NC(=O)CCN1CCN(c2cccc(C)c2C)CC1,114%
O=C(c1sc2ccccc2c1Cl)N(Cc1cccs1)C1CCS(=O)(=O)C1 (stereo not drawn),16%
O=C(CN1C(=O)COc2ccccc21)N(Cc1ccccc1)Cc1ccccn1,21%
Brc1ccc(-c2nnc3sc(CN4CCC5(CC4)OCCO5)cn23)cc1,17%
Cc1ccc2cc(CCNC(=O)C3CCCC3)c(=O)[nH]c2c1,0%
Cc1ccc(NC(=O)C2CCCN(S(=O)(=O)c3c(C)noc3C)C2)c(C)c1 (stereo not drawn),38%
O=C1CCC(C(=O)NC2(C(=O)NC3CCCCC3)CCCCC2)N1 (stereo not drawn),1%
CCN(CC)S(=O)(=O)N1CCC(C(=O)NCc2ccc(C)cc2)CC1,38%
Cc1nc2nc(C)c(CCC(=O)NCc3ccc4c(c3)OCO4)c(C)n2n1,2%
O=C(COc1ncnc2ccccc12)N1CCOCC1,-10%
COc1ccccc1CNc1ncncc1-c1ccc2c(c1)OCO2,30%
CCCN(CCC)S(=O)(=O)c1ccc(C(=O)Nc2nnc(-c3cccc(OC)c3)o2)cc1,-20%
O=S(=O)(O)c1cc(O)c2c(N=Cc3ccccc3O)cc(S(=O)(=O)O)cc2c1,1%[5.75 µM]
O=C1CC2(CCCC2)CC(=O)N1CCCCN1CCN(c2ncccn2)CC1,52%
O=C(O)[C@@H](O)[C@@H](O)[C@H](O)C(=O)CO,2%[5.75 µM]
C[C@@H]1C(=O)NC2=Nc3cccc(Cl)c3CN21,0%
O=C1CC(c2ccc(Cl)cc2)CC(O)=C1C=NCCN1CCNCC1 (stereo not drawn),47%
CCn1c2ccccc2c2nnc(SCC(=O)NC(C(=O)OC)C(C)C)nc21 (stereo not drawn),44%
c1ccc(CCNCc2ccco2)nc1,11%[5.75 µM]
CCCCS(=O)(=O)NC1=NCN(C2CCN(Cc3ccccc3)CC2)CN1,-12%
Cc1nn(-c2ccccc2)c2sc(C(=O)N(Cc3ccco3)C(C)C(=O)NC(C)(C)C)cc12 (stereo not drawn),54%
O=C(NCCC1=CCCCC1)C1CCCN(c2nc3ccccc3o2)C1 (stereo not drawn),102%
O=S(=O)(Cc1ccccc1Cl)N1CCCCC1,0%
COc1ccc(C2CC(=O)C(C=NCCN3CCNCC3)=C(O)C2)cc1OC (stereo not drawn),42%
CCCP(=O)(CC(=O)N(CC)CC)c1ccccc1 (stereo not drawn),-4%
COc1ccc2c(c1)CCC1C2CC[C@]2(C)[C@H](NCCCCCCN3C(=O)C=CC3=O)CC[C@@H]12 (stereo partly drawn),0%
O=C(O)CSc1nnc(C2COc3ccccc3O2)n1-c1ccccc1 (stereo not drawn),-4%
CCn1c(=O)cc(OCC(=O)O)c2ccccc21,-2%
Cc1cc(NC(=O)Cc2c(F)cccc2Cl)no1,4%
CN(C)c1ncc2ncc(=O)n(CCc3ccccc3)c2n1,68%
CCOC(=O)c1c(C)n(Cc2ccco2)c2ccc(O)cc12,-10%
CC1S/C(=C(\C#N)C(=O)NCc2ccco2)N(c2ccc(F)cc2)C1=O (stereo not drawn),-8%
O=C(CN1CCN(c2ccccn2)CC1)Nc1ccc(Oc2ccccc2)cc1,114%
Cc1nn(CC(=O)NCc2cccnc2)c(=O)c2ccccc12,1%
COc1cccc(/C(O)=C2/C(=O)C(=O)N(CCN3CCOCC3)C2c2cccs2)c1 (stereo not drawn),13%
CC1(C)N=C(c2ccc(Cl)cc2)C(=O)N1,0%
COc1c(O)cc2oc3cc(O)c(CC=C(C)C)c(O)c3c(=O)c2c1CC=C(C)C,-13%
COC(=O)c1ccccc1NC(=O)c1cccs1,3%
CN1CCc2[nH]nc(-c3n[nH]c4c3CN(C)CC4)c2C1,-2%[5.75 µM]
COc1cc(S(=O)(=O)N2CCN(c3ccccc3F)CC2)ccc1Cl,2%
CC(C)n1c(NCc2c[nH]c3ccccc23)nc2ccccc21,20%
CCCn1c(-c2ccc(F)cc2)nc2c(N(C)CCN(C)C)nc(C)nc21,39%
COc1cc(-c2nc(S(=O)(=O)c3ccccc3)c(N3CCOCC3)o2)cc(OC)c1OC,125%
Cc1ccc(S(=O)(=O)NCCC(=O)NC2CCCC2)cc1,-5%
COc1ccc2occ(NC(C)=O)c2c1,4%
Cc1c(C#N)c(SCC(N)=O)nc2c1CCCC2,8%
CCOC(=O)C(NC(C)=O)(OCc1ccc(F)cc1)C(F)(F)F (stereo not drawn),4%
CCOc1ccc(N(CC(=O)NCc2ccc(F)cc2)S(=O)(=O)c2c(C)noc2C)cc1,27%
CCN1CCN(C(=O)CSCc2nc(-c3ccc(OC)c(OC)c3)oc2C)CC1,4µM*[single pt active]
CCN1CCN(c2nc(C)nc3c2sc(=S)n3C)CC1,-3%
O=C(COC(=O)C1CCCO1)Nc1cccc(C(F)(F)F)c1 (stereo not drawn),5%
CC(C)C1O/C(=N/C(=O)Nc2ccc(Cl)c(Cl)c2)NC1=O (stereo not drawn),-7%
CC(C)(C)NC(=O)CN(C(=O)C1(C)CC(=O)N=C2C=CC=CN21)C1CCCC1 (stereo not drawn),-18%
C/C=C/C=O,11%

# Reprinted from the part before: two entries, then new ones.
SMILES,AmpC inh no det
CC(C)(C)NC(=O)CN(C(=O)C1(C)CC(=O)N=C2C=CC=CN21)C1CCCC1 (stereo not drawn),-18%
C/C=C/C=O,11%
CC(=O)NCCc1ccc(S(=O)(=O)N(C)C2CCS(=O)(=O)C2)cc1 (stereo not drawn),-17%
Cc1nnc2n(CCc3ccccc3)c(=O)c3c4c(sc3n12)CCCC4,14%
COc1ccccc1N(CC(=O)NCCSC(C)(C)C)S(C)(=O)=O,23%
COc1ccc(NC(=O)C2CC(=O)OC2(C)C)cc1 (stereo not drawn),0%
CSc1cccc(NC(=O)CN(C)S(=O)(=O)c2ccccc2)c1,-10%
O=C(CN1C(=O)c2ccccc2C1=O)[C@@H](O)CN1C(=O)c2ccccc2C1=O,1%[5.75 µM]
COc1ccc(Cc2nnc(NC(=O)c3c(-c4ccccc4)noc3C)s2)cc1OC,117%
COc1ccc(NC(=O)CSc2nnc(Cc3cccn3C)n2-c2ccc(OC)cc2)cc1,104%
CC1CCN(S(=O)(=O)c2ccc(Cl)cc2)CC1,-13%
OCCn1c(SCCOc2ccccc2F)nc2ccccc21,3%
CCCC(=O)N(c1ccc(OCC)cc1)C1C=CS(=O)(=O)C1 (stereo not drawn),10%
CCc1ccccc1-n1c(SCC(=O)Nc2ccc3c(c2)OCCO3)nc2[nH]ncc2c1=O,22%
COCCNC(=O)C1CCN(S(=O)(=O)N2CCC3(CC2)OCCO3)CC1,-11%
CCOCCn1c(CN2CCN(c3ccc(F)cc3)CC2)nc2c1c(=O)n(C)c(=O)n2C,119%
CCCc1cc(=O)n2[nH]c(-c3ccc(C)cc3)cc2n1,-11%
O=C(c1ccccc1)N(Cc1ccc(F)cc1)C1CCS(=O)(=O)C1 (stereo not drawn),9%
O=c1[nH]c(SCc2c(Cl)c(Cl)c(Cl)c(Cl)c2Cl)nc(=S)[nH]1,-8%[5.75 µM]
CCN(CC(=O)NCc1ccc(F)cc1)Cc1nc2ccccc2c(=O)[nH]1,33%
COC(=O)[C@@]1(Cc2ccccc2)[C@H]2c3cc(C(=O)N4CCCC4)n(Cc4ccc(OC)c(OC)c4)c3C[C@H]2CN1C(=O)c1ccccc1,146%
CCCN1C2CCCC1CC(NC(=O)c1ccccc1F)C2 (stereo not drawn),-6%
Cc1cc(S(=O)(=O)NCc2ccc(S(N)(=O)=O)cc2)c(C)s1,-10%
O=S(=O)(Nc1nc2ccccc2nc1N1CCN(c2ccccn2)CC1)c1ccc(Cl)cc1,-4%
COc1ccc(NC(=O)CSc2nnc(C(C)C)n2N)cc1,-4%
Cc1cc(C)nc(SCc2nc(N)nc(-c3ccccc3O)n2)n1,68%
COC(=O)c1ccc2c(=O)n(NC(C)=O)c(=S)[nH]c2c1,-6%
O=C1c2oc3ccccc3c(=O)c2C(c2ccc(Cl)cc2)N1c1ncccn1 (stereo not drawn),22%
c1csc(C2C3=C(Nc4ncnn42)c2ccccc2OC3)c1 (stereo not drawn),-2%
Cc1cc(C)nc(-n2nc(C)cc2NC(=O)c2cc(=O)c3ccccc3o2)n1,13%
CCOC(=O)c1oc2ccc(S(=O)(=O)N3CCC(C)CC3)cc2c1C,25%
O=S1(=O)CCC(SCc2nc3sccn3c2Br)C1 (stereo not drawn),-4%
O=C1C2ON(c3ccccc3)C(c3ccccc3F)C2C(=O)N1c1ccccc1 (stereo not drawn),0%
c1ccc2c(c1)[nH]c1nc(SCCN3CCOCC3)nnc12,-8%
O=[N+]([O-])c1c2ccccc2cc2ccccc12,-14%
Cc1nnc(SC(C)C(=O)Nc2ccc(Cl)cn2)n1Cc1ccccc1 (stereo not drawn),44%
CCOC(=O)Cc1csc(NC(=O)CSc2nnc(-c3ccc(OC)cc3)n2C)n1,57%
CN1[C@@H](CC(=O)c2ccccc2)CCC[C@@H]1C[C@@H](O)c1ccccc1,18%
O=c1cc(N2CCN(c3ccccc3)CC2)[nH]c(=O)n1Cc1ccc(F)cc1,-3%
CC(=O)Nc1ccc(-c2nc3c(C)cccc3[nH]2)cc1,-14%
O=C(CC(C(=O)O)C1CCCO1)NCc1ccccc1 (stereo not drawn),-9%
Cc1cc(C)n(-c2cc(C)c(C)cc2Br)n1,-2%
CCOC(=O)Cc1nnc(NC(=O)CSc2ccccc2)s1,-22%
O=C(NCCc1ccccn1)C1CCCN(S(=O)(=O)Cc2ccccc2)C1 (stereo not drawn),12%
CCOC(=O)c1cnc(SCc2ccccc2)nc1N,-14%
O=C(CN1C(=O)C2C3C=CC(C3)C2C1=O)NCCc1ccccc1Cl (stereo not drawn),1%
FC(F)(F)c1ccc(N2CCN(c3cc(-c4ccccc4)nc4ncnn34)CC2)nc1,40%
CCOC(=O)c1oc2ccccc2c1CN1CCN(c2ccccc2)CC1,42%
CCCCOC(=O)c1cccc(NC(=O)CCC(=O)O)c1,-4%
C=C(Br)Cn1c(CC(C)C)nc2ccccc21,-2%
NCc1cc(=O)[nH]o1,2%&3%
c1ccc(CCc2nn3c(Cn4nnc5ccccc54)nnc3s2)cc1,21%
COC(=O)n1c(=O)oc2ccccc21,-10%
CS(=O)(=O)N(CC(=O)O)c1cc(Cl)cc(Cl)c1,-5%
COc1ccccc1C(=O)N1CCC(C(=O)c2ccc(F)cc2)CC1,34%
CCOc1ccc2c(c1)c1nnc(SCC(=O)N3CCCCC3C)nc1n2C (stereo not drawn),112%
CN1/C(=C\C(=O)COC(=O)Cn2nnc(-c3ccccc3)n2)C(C)(C)c2ccccc21,0%
C[C@@H](C(=O)Nc1ccc2ccccc2c1)[C@@H]1C[C@@]1(C)[C@@H](NC(=O)c1cnccn1)c1ccccc1,107%
CN(C)C(C(=O)NC1CCCCC1)c1ccc(Cl)cc1 (stereo not drawn),19%
O=c1cnn(-c2ccccc2)c(-c2ccccc2)c1,-8%
Cn1c(C(=O)O)c(CC(=O)NCc2cccnc2)c2ccccc21,-6%
COC(=O)Nc1sc(C)nc1-c1ccccc1,5%
# Further results:
SMILES,AmpC inh no det
COc1ccc(C(C)=O)cc1COC(=O)c1ccc(OCc2c(C)noc2C)cc1,20%
COc1ccc(-n2c(=O)c(C)nc3cnc(Nc4cccc(OC)c4)nc32)cc1,83%
CCCCCOC(=O)NCC(O)c1ccccc1 (stereo not drawn),1%
Cc1cc(C)n(CC(O)COCc2ccco2)n1 (stereo not drawn),4%

# From PubChem BioAssay
